Source: PubChem BioAssay (National Center for Advancing Translational Sciences (NCATS))
RE007 growth inh: qHTS Assay for Inhibitors of the HIV-1 protein Vpr. Potency, µM (titrated, usually from 92.2 µM), inactives show at the top dose activity change, negative = less growth. S. pombe RE007 Vpr strain, BacTiter-Glo ATP luminescence, 24 h; control for the full effect not named in the record. 360,000 tested, 0.21% active; active = well fitted falling curve with a large enough effect; inconclusive = small, poorly fitted or top-dose-only effect; inactive = no such curve, though single readings can be large or run the other way;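 also: % is scaled to controls: 0 for no effect and ±100 for the full control effect; nearly all actives have a fitted effect of over 50% in size; the assay follows cell death caused by Vpr and the record does not say whether a fall means rescue or toxicity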
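Fission yeast RE007 carrying one integrated HIV-1 vpr copy, seeded at OD 0.01 in PMG+AL medium with 23 nL pinned compound. Grown 24 h at 30 degrees; viability read by BacTiter-Glo luminescence after 5 min.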
Cruzain inh Det: qHTS Assay for Promiscuous and Specific Inhibitors of Cruzain (with detergent); Cruzipain (Trypanosoma cruzi), P25779; purified cruzain, Z-FR-AMC fluorescence, 0.01% Triton; Potency, µM, for the others: max response, negative = inhibition, hits mostly inhibitors; 200,000 tested, 0.43% active; AID 1478, 2009;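 also: plate controls were neutral wells for no effect and buffer without enzyme for full effect; nearly all actives have a fitted effect of over 40% in size; top concentration of the series not given in the record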
Target sequence (P25779 123-467 limits assumed): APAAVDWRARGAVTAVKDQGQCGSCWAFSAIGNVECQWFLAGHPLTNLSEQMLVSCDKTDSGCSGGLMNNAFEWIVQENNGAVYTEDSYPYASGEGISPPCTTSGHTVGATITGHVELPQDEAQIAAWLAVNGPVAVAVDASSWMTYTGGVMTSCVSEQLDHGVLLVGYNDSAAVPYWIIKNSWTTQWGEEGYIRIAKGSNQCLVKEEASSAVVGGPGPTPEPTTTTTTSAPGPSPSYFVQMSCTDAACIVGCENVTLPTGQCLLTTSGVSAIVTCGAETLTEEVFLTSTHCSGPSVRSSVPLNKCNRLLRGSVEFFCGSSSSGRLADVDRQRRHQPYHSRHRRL
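Purified cruzain (1.5 nM final) was preincubated with compounds for 15 min at room temperature in 100 mM sodium acetate pH 5.5, 5 mM DTT, 0.01% Triton X-100. Reaction started with 2 uM Z-FR-AMC; AMC fluorescence change over 60 s gave activity.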
Lassa entry inh: qHTS for Inhibitors of binding or entry into cells for Lassa Virus; Lassa virus pseudotype entry inhibition, cell reporter; control for the full effect not named in the record; Potency, µM (series often up to 37.9 µM), for the others: at the highest dose activity change, negative = inhibition, usual class: inhibitors; 300,000 tested, 1.2% active; AID 540256, 2011; active means well fitted inhibition curve with a large enough effect; inconclusive means small, poorly fitted or top-dose-only effect, or effect the other way; inactive means flat fitted curve, though single readings scatter; tested in HEK293 cells; also: % is scaled to controls: 0 for no effect and ±100 for the full control effect; nearly all actives have a fitted effect of over 50% in size; luciferase read-out
SARS PLpro yeast: qHTS of Yeast-based Assay for SARS-CoV PLP; Potency, µM (highest dose often 32.9 µM), inactives show at the highest dose activity, positive = growth rescue; 330,000 tested, 0.19% active; S. cerevisiae expressing SARS-CoV PLpro, growth rescue; control for the full effect not named in the record; AID 485353, 2010; active means well fitted rising curve with a large enough effect; inconclusive means small, poorly fitted or top-dose-only effect; inactive means no such curve, though single readings can be large or run the other way; also: 0% is about no effect; nearly all actives have a fitted effect of over 55% in size; growth read by luminescence after 48 h
NS1 inh: qHTS Assay for Inhibitors of Influenza NS1 Protein Function. S. cerevisiae slowed by influenza A NS1, growth recovery by OD600. Potency, µM (series often up to 46.1 µM), without a hit: top-dose activity, positive = more growth. 270,000 tested, 0.4% active. AID 2326, 2010; active means well fitted rising curve with a large enough effect; inconclusive means small, poorly fitted or top-dose-only effect; inactive means no such curve, though single readings can be large or run the other way; also: nearly all actives have a fitted effect of over 50% in size
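A cell-based growth assay was used: compounds that relieve NS1-induced slow growth of budding yeast raise OD600. Assay medium was yeast nitrogen base with ammonium sulphate and -URA supplement, pH 6.0, with 2% galactose.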
2A StopGo: High Throughput Screening for Foot and Mouth Disease Virus Antivirals. Potency, µM (titrated, usually from 57.9 µM), for the others: top-dose signal change, negative = less light. 410,000 tested, 1.2% active. human cells with a luciferase reporter of 2A StopGo recoding; control for the full effect not named in the record; active = well fitted falling curve with a large enough effect; inconclusive = small, poorly fitted or top-dose-only effect; inactive = no such curve, though single readings can be large or run the other way; tested in HEK293T cells; also: % is scaled to controls: 0 for no effect and ±100 for the full control effect; nearly all actives have a fitted effect of over 45% in size; luciferase light after 4 h
MARV entry inh: qHTS for inhibitors of binding or entry into cells for Marburg Virus | AID 540276, 2011 | Potency, µM (series often up to 37.8 µM), for inactives: top-dose activity change, negative = inhibition, usual class: inhibitors | Marburg virus pseudotyped entry inhibition, cell reporter; control for the full effect not named in the record; about a third of the inactives were read at about 46 µM | 300,000 tested, 1.8% active; active = well fitted inhibition curve with a large enough effect; inconclusive = small, poorly fitted or top-dose-only effect, or effect the other way; inactive = flat fitted curve, though single readings scatter; tested in HEK293 cells; about a fifth of its hits are not listed in these tables; also: % is scaled to controls: 0 for no effect and ±100 for the full control effect; luciferase read-out
Cruzain inh noDet: qHTS Assay for Promiscuous and Specific Inhibitors of Cruzain (without detergent) | 200,000 tested, 2.3% active | purified cruzain, Z-FR-AMC fluorescence, no detergent | Cruzipain (Trypanosoma cruzi), P25779 | Potency, µM, for the others: max response, negative = inhibition, actives largely listed as inhibitors;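 also: plate controls were enzyme without inhibitor for no effect and buffer without enzyme for full effect; nearly all actives have a fitted effect of over 40% in size; top concentration of the series not given in the record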
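Purified cruzain at 1.5 nM, pre-incubated 15 min with compound at room temperature in 100 mM sodium acetate pH 5.5, 5 mM DTT, 0.00005% Triton X-100. Reaction started with 2 uM Z-FR-AMC; AMC fluorescence increase over 60 s gives rate.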
Numbers without * were called inactive; ? = inconclusive; . = no result given; & = joins results of further samples; [ ] = another dose, or the depositor's remark. Unless noted, calls follow the shape of the dose curve; as a rule, active = well fitted curve in the direction sought with a large enough effect; inconclusive = small, poorly fitted or top-dose-only effect, or another doubt; inactive = no such curve, though single readings can be large; an effect the other way counts as inactive or inconclusive. Potency is read from the fitted curve at half-maximal effect.

no. | compound | RE007 growth inh | Cruzain inh Det | Lassa entry inh | SARS PLpro yeast
1 | Nn1c(SC/C=C/c2ccccc2)nnc1-c1ccccn1 | -19% | 0.7% | 4% | -8%
2 | C/C(=N\NC(=O)c1ccccc1[N+](=O)[O-])c1ccc(Br)s1 | 4% | . | 1% | -2%
3 | COc1cccc(C=O)c1OC(=O)N1CCOCC1 | 11% | . | 5%[46.1 µM] | 0%
4 | O=C(Cc1ccccc1Cl)NC1(O)C(=O)c2ccccc2C1=O | 20% | . | ? | 1%
5 | CCCn1c(/N=C/c2ccc3c(c2)OCO3)nc2ccccc21 | 3% | -14% | 14% | -5%
6 | O=c1c2ccccc2nc(CSc2nnnn2-c2ccccc2)n1-c1ccccc1 | 0% | -2.0% | 0% | -3%
7 | O=C1OC(Nc2ccc(Br)cc2F)c2ccccc21 (stereo not given) | -5% | 5.5% | 29% | -2%
8 | CCOc1ccc(C(=O)NCC(=O)NCC(c2cccs2)N2CCOCC2)cc1 (stereo not given) | 20% | . | -4% | .
9 | CCOC(=O)CNC(=O)c1sc(NC(=O)c2cccc(F)c2)nc1C | -17% | -0.6% | ? | 11%
10 | CC(=O)Nc1ccc(S(=O)(=O)N2CCCC2C(=O)Nc2ccc3c(c2)OCCO3)cc1 (stereo not given) | 4% | . | 9% | -1%
11 | N#C/C(=C\c1ccc(Oc2ccc(C(F)(F)F)cc2[N+](=O)[O-])cc1)c1nc2ccccc2[nH]1 | -11% | 1.7% | ? | -2%
12 | NC(=O)C1CCN(C(=O)c2cnn(-c3ccccc3)c2NC(=O)c2cccc(F)c2)CC1 | -3% | . | 14%[46.1 µM] | 1%
13 | C/C=C(\C)CN1CCN(c2cc(C)ccc2C)CC1 | 2% | -1.7% | ? | 6%
14 | CCOC(=O)N1CCN(C(=O)/C(=C/c2ccc(OC)cc2)NC(=O)c2ccccc2)CC1 | 4% | -2.3% | -24% | 7%
15 | O=S(=O)(NC1CN2CCC1CC2)c1ccc(Cl)cc1 (stereo not given) | 22% | . | 1% | 0%

no. | NS1 inh | 2A StopGo | MARV entry inh | Cruzain inh noDet
1 | -7% | 19% | 8% | -2%
2 | 1% | -7% | -5%[46.1 µM] | .
3 | 1% | -8% | -4%[46.1 µM] | .
4 | 8% | -6% | -4%[46.1 µM] | .
5 | 13% | 9% | 1% | -1%
6 | 3% | -20% | -11% | -5%
7 | -1% | 13% | ? | -4%
8 | . | 27% | -1%[46.1 µM] | .
9 | 5% | 0% | 17%[46.1 µM] | 18%
10 | 3% | 5% | 3%[46.1 µM] | .
11 | -38% | 25µM* | ? | ?
12 | 14% | 1% | 2%[46.1 µM] | .
13 | 2% | -6% | ? | 8%
14 | -10% | 15% | -7% | 3%
15 | 7% | 4% | 21%[46.1 µM] | .

(list continues)
no. | compound | RE007 growth inh | Cruzain inh Det | Lassa entry inh | SARS PLpro yeast
16 | COC(=O)c1cc2c(s1)=NC=NP=2(N1CCOCC1)N1CCOCC1 | -12%&-6% | -2.7% | 11%&3% | 17%
17 | Cc1ccc(SCCNC(=O)c2ccccc2F)cc1 | 2% | . | . | 2%
18 | CN(CCOc1cccc(C(F)(F)F)c1)Cc1ccccc1 | -14% | . | -8% | 1%
19 | O=C(CCCc1nc(-c2ccccc2)no1)Nc1cc(C(F)(F)F)cc(C(F)(F)F)c1 | . | -13% | 11%[46.1 µM] | .
20 | CC(C)OCCCn1c(=S)[nH]c2ncccc2c1=O | 9% | 0.6% | 0% | 2%
21 | CC(=O)c1ccc(NC(=O)CSc2nnc(-c3ccoc3C)n2Cc2ccccc2)cc1 | -7% | 1.8% | -13% | 0%
22 | COC(=O)c1cc(S(=O)(=O)N2CCN(c3cc(C)ccc3C)CC2)c[nH]1 | -4% | . | . | -12%
23 | O=C(O)c1cccc2c1-c1ccccc1/C2=N\Nc1ccccc1 | 9% | . | -1%[46.1 µM] | -3%
24 | CCCCCCNC(=O)CCc1c(C)nc2nc(-c3cc(OC)cc(OC)c3)nn2c1C | . | 0.7% | -17%[46.1 µM] | .
25 | CC(C)OCCCNC(=O)c1cc(-c2cccs2)nc2ccccc12 | -5% | . | 0%[46.1 µM] | -1%
26 | O=C(Cc1coc2ccc3ccccc3c12)N1CCCC1 | -3% | -0.1% | ? | -14%
27 | O=C(COC(=O)CNC(=O)c1sc2ccccc2c1Cl)Nc1c(Cl)cc(Cl)cc1Cl | 9% | 25µM* | ? | 8%
28 | CCOC(C(=O)OCCCN(CC)CC)(c1ccccc1)c1ccccc1 | -11% | 1.8% | ? | 2%
29 | CCOc1ccc(NC(=O)c2cccnc2SC)cc1 | 21% | . | 0% | -3%
30 | COc1cc(NC(=O)CC(c2ccc(C)cc2)N2Cc3ccccc3C2=O)cc(OC)c1 (stereo not given) | . | -6.7% | -19%[46.1 µM] | .

no. | NS1 inh | 2A StopGo | MARV entry inh | Cruzain inh noDet
16 | 3% | -5% | 28%&4% | 2%
17 | -28% | 26% | . | .
18 | -10% | -20% | ? | .
19 | . | 3% | -10%[46.1 µM] | -10%
20 | 3% | -12% | 6% | 5%
21 | 2% | -1% | -23% | 27%
22 | -47% | ? | . | .
23 | -9% | 12% | ? | .
24 | . | -17% | 0%[46.1 µM] | ?
25 | -4% | 1% | ? | .
26 | 20%[9.22 µM] | 28% | 1% | 6%
27 | 16% | 8% | 3% | ?
28 | 6% | ? | ? | 0%
29 | . | 51%[activator] | ? | .
30 | . | 20% | . | -11%

Some values from the results shown:
CN(CCOc1cccc(C(F)(F)F)c1)Cc1ccccc1 @ NS1 inh: -10%
CC(C)OCCCn1c(=S)[nH]c2ncccc2c1=O @ SARS PLpro yeast: 2%

Remaining list, next part.
no. | compound | RE007 growth inh | Cruzain inh Det | Lassa entry inh | SARS PLpro yeast
31 | COc1ccc(C(=O)COC(=O)CN2C(=O)c3ccccc3C2=O)c(OC)c1 | 2% | . | 5% | 0%
32 | CCN(CC)Cc1cc(CC(C(N)=O)C(N)=O)ccc1OC | -17% | 1.0% | -4% | 0%
33 | COc1ccc(CNC(=O)CSc2nc(C)cs2)cc1 | 6% | . | -4% | -2%
34 | Cc1nc2cc(NC(=O)c3ccc(Br)s3)ccc2s1 | -17% | . | . | -6%
35 | CCCOc1ccc(C(F)(F)F)cc1NC(=O)CN1C(=O)C(=O)N(CC)C1=O | 2% | . | 4% | 2%
36 | CS(=O)(=O)N1CCN(Cc2cc(=O)n3ccsc3n2)CC1 | 8% | . | 15% | 4%
37 | Cc1nc2ccccc2cc1C(=O)NCc1ccco1 | 1% | -1.4% | 3% | 11%
38 | O=c1[nH]nc(SCc2ccccc2)n1C1CC2C=CC1C2 (stereo not given) | -1% | . | ? | -1%
39 | Cc1cc(OCc2nn[nH]n2)c2c(C)c(Cc3ccccc3)c(=O)oc2c1 | -11% | -15% | 0% | 1%
40 | CCCN(Cc1cc(=O)[nH]c2ccccc12)C(=O)CC | -7% | . | . | 0%
41 | Cc1ccc(OCCC(=O)Nc2ccc(C)c(F)c2)cc1 | 0% | . | . | -2%
42 | CCOC(=O)c1ccc(NC(=O)CCS(=O)(=O)Cc2ccccc2)cc1 | 1% | . | 0% | -2%
43 | CN(c1ccc(OCC(=O)Nc2ccc3[nH]c(=O)[nH]c3c2)cc1)S(=O)(=O)c1ccc(Cl)cc1 | 8% | 0.0% | 23µM* | 14%
44 | CC(=O)NS(=O)(=O)c1ccc(NC(=O)c2ccc(Cl)cc2[N+](=O)[O-])cc1 | -13% | . | 14%[46.1 µM] | 1%
45 | Cc1cc(C)cc(NC(=O)c2ccc(Cn3nc(C)c(Cl)c3C)o2)c1 | 20% | -16% | -5% | -5%
46 | O=C(NCCNC(=O)c1ccc(Cl)cc1Cl)c1ccccn1 | 1% | . | -5%[46.1 µM] | 0%
47 | CCS(=O)(=O)c1c(Nc2cc(C)ccc2C)sc(C(=O)c2ccccc2)c1N | . | -7.8% | ? | .
48 | O=C(NCC(c1cccnc1)N1CCc2ccccc2C1)C(=O)Nc1cccc(Cl)c1 (stereo not given) | . | -0.7% | 24%[46.1 µM] | .

no. | NS1 inh | 2A StopGo | MARV entry inh | Cruzain inh noDet
31 | 8% | -14% | 19% | .
32 | -1% | 19% | 8% | -3%
33 | . | 15% | ? | .
34 | -31% | -35% | . | .
35 | . | -7% | -2% | .
36 | -9% | -8% | 2% | .
37 | 4% | ? | 9%&9% | -5%
38 | -4% | -12% | -18%[46.1 µM] | .
39 | 24% | 4% | 19% | 11%
40 | 1% | -16% | . | .
41 | -6% | -2% | . | .
42 | -8% | -8% | ? | .
43 | 19% | -8% | ? | -13%
44 | 4% | -2% | 1%[46.1 µM] | .
45 | -17% | ? | -3% | ?
46 | 2% | 25% | 0%[46.1 µM] | .
47 | . | -26% | ? | -9%
48 | . | 0% | . | -2%

Random excerpt: four records from the list
no. | compound | RE007 growth inh | Cruzain inh Det | Lassa entry inh | SARS PLpro yeast
20 | CC(C)OCCCn1c(=S)[nH]c2ncccc2c1=O | 9% | 0.6% | 0% | 2%
25 | CC(C)OCCCNC(=O)c1cc(-c2cccs2)nc2ccccc12 | -5% | . | 0%[46.1 µM] | -1%
28 | CCOC(C(=O)OCCCN(CC)CC)(c1ccccc1)c1ccccc1 | -11% | 1.8% | ? | 2%
36 | CS(=O)(=O)N1CCN(Cc2cc(=O)n3ccsc3n2)CC1 | 8% | . | 15% | 4%

no. | NS1 inh | 2A StopGo | MARV entry inh | Cruzain inh noDet
20 | 3% | -12% | 6% | 5%
25 | -4% | 1% | ? | .
28 | 6% | ? | ? | 0%
36 | -9% | -8% | 2% | .

Outcome played no part in choosing rows; any-hit rate near 4.7%.
